# Compound activity (PubChem)
# KCNQ2 enhance: potentiators of rat KCNQ2 potassium channel | B-score at 10 µM | hit rate 0.54% among 310,000 | AID 2239, 2010 | CHO-K1 KCNQ2, FluxOR thallium flux fluorescence; hits give high values;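 active = fluorescence ratio B-score at least 3 SD of library B-scores, with initial fluorescence B-score within 3 SD, cut at about 5.3 in these data; same plate scores as AID 2156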;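 note: B-score of peak minus minimum over baseline fluorescence ratio after K+ and Tl+ stimulus; positive B-score means potentiation of KCNQ2 with more thallium influx and brighter signal; only the inactives scoring about 0 or higher are listed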
# Target sequence (O88943 whole entry, looked up): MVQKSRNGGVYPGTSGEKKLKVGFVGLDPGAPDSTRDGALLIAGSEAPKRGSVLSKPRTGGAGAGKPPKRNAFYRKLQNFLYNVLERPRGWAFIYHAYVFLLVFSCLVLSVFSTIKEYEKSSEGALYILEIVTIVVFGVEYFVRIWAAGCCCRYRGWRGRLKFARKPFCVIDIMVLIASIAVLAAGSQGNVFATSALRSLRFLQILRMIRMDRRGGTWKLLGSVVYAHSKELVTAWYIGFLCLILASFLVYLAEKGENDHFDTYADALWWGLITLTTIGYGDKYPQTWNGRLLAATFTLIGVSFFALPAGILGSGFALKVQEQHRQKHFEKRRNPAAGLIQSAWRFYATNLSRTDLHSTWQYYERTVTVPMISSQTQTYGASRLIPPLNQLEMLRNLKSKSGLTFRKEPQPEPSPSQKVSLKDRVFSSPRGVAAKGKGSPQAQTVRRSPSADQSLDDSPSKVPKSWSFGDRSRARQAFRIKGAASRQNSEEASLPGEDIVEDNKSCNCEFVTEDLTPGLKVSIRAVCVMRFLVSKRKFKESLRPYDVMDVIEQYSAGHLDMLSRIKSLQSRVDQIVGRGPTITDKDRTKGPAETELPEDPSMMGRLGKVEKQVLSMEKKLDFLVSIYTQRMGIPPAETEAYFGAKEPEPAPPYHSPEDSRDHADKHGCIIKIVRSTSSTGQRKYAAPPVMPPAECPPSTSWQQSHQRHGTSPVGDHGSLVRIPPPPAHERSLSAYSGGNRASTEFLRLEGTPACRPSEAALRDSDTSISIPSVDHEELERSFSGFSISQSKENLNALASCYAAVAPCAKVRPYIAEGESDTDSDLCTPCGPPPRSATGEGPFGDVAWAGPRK
# KCNQ2 enhance baseline: also measured in KCNQ2 enhance; calls as there; B-score; compound at 10 µM; measured here: initial fluorescence intensity artifact check;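 brightness before thallium and not channel activity; 0 = typical well and far values either way flag optical interference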
# Active calls of the source: *. Some of the compounds tested; rates above refer to the full screens.
# Start of the listing, in advance:
SMILES,KCNQ2 enhance,KCNQ2 enhance baseline
Cc1nnc(SCC(=O)Nc2ccc(Cl)cn2)s1,0.03,-0.24
CC(C)n1nc(C(=O)N2CCN(S(=O)(=O)c3cccs3)CC2)c2ccccc2c1=O,0.14,-0.95

# All compounds of this part (from the top)
SMILES,KCNQ2 enhance,KCNQ2 enhance baseline
Cc1nnc(SCC(=O)Nc2ccc(Cl)cn2)s1,0.03,-0.24
CC(C)n1nc(C(=O)N2CCN(S(=O)(=O)c3cccs3)CC2)c2ccccc2c1=O,0.14,-0.95
COc1cccc(CN(CC2CCCO2)S(=O)(=O)c2ccc(S(=O)(=O)N(C)C)cc2)c1 (stereo not given),2.1,-2.1
Cc1cccc(NC(=O)CN2C(=O)N/C(=C/c3cc(C)n(-c4ccncc4)c3C)C2=O)c1,0.1,-0.85
CCOc1ccccc1Nc1nc(N)nc(CN2CCCCC2C)n1 (stereo not given),0.16,1.2
COC(=O)[C@@H]1C[C@H]2CC[C@H](O)C[C@H]2N1Cc1ccc(N2CCN(C)CC2)cc1,0.08,0.95
COc1ccc(-c2[nH]c(-c3ccc(C(=O)O)cc3)nc2-c2ccccc2)cc1,0.09,-1.1
Cc1ccc(CNc2ccc3c(c2)nc(C)n3C)cc1,1.8,-1.6
O=C(Nc1c2c(nn1-c1ccc([N+](=O)[O-])cc1)CS(=O)(=O)C2)C1CC1,1.8,0.44
CN(C)C(=O)c1ccccc1-c1ccccc1,0.84,-0.02
CC(C)NC(=O)C1(c2ccccc2)CC1(Cl)Cl (stereo not given),1,1.2
Cc1ccccc1OCCC(=O)OCC(=O)NC1CCCCC1,1.1,2.8
COc1cccc(OCCn2cc(C=O)c3ccccc32)c1,2.5,-0.39
Cc1cc(C(=O)Cn2nc(C(=O)O)c3ccccc3c2=O)c(C)n1C1CC1,0.18,1.9
COc1ccc(C(O)P(=O)(OCC(C)C)c2ccc(N(C)C)cc2)c(OC)c1 (stereo not given),0.12,-1.2

# An excerpt from above in order of the KCNQ2 enhance baseline value, ascending:
SMILES,KCNQ2 enhance,KCNQ2 enhance baseline
CC(C)n1nc(C(=O)N2CCN(S(=O)(=O)c3cccs3)CC2)c2ccccc2c1=O,0.14,-0.95
Cc1cccc(NC(=O)CN2C(=O)N/C(=C/c3cc(C)n(-c4ccncc4)c3C)C2=O)c1,0.1,-0.85
CC(C)NC(=O)C1(c2ccccc2)CC1(Cl)Cl (stereo not given),1,1.2

# The results go on.
SMILES,KCNQ2 enhance,KCNQ2 enhance baseline
O=C(NC1CCCC1)c1ccc(CS(=O)(=O)c2ccc(Cl)cc2)o1,0.82,1
Cc1ccc(S(=O)(=O)Nc2ccc3c(c2)CCC3)cc1C,0.34,0.96
O=[N+]([O-])c1cc(Cl)cc(/C=N/NC(=S)Nc2ccc(S(=O)(=O)N3CCOCC3)cc2)c1O,18*,-2.5*
O=C(Nc1ccc([N+](=O)[O-])c(NC(=O)c2cccnc2)c1)c1cccnc1,0.45,-0.79
Cc1ccc(S(=O)(=O)NCCc2nnc3ccc(SCc4cccnc4)nn23)cc1,2.2,0.16
COc1ccc(CNC(=O)COC(=O)Cc2ccsc2)cc1,0.09,1.4
CCOC(=O)C(=CNc1cc(C)ccc1-n1cccc1)C(=O)OCC,0.44,-2.7
CCCc1cc(C(F)(F)F)c(C#N)c(=O)[nH]1,0.2,0.9
Oc1cccc2cc3cccc(O)c3c(O)c12,0.09,-1.6
CCCSc1ccccc1C(=O)N1CCN(C(=O)c2ccco2)CC1,0.23,-0.5
CC(C)(C)c1ccc(CS(=O)CC(O)CO)cc1 (stereo not given),1.1,-1
CN(C)S(=O)(=O)c1ccc(C(=O)NC(=O)CSc2ccccc2)cc1,0.54,-0.84
S=c1[nH]nc(-c2cccs2)n1/N=C/c1cn(-c2ccccc2)nc1-c1ccc(Cl)cc1,0.6,0.2
COc1ccc(N(C)C(=S)Nc2ccc3nc(C)c(C)nc3c2)cc1,0.77,1.1
Nc1ccc2nc(CCCCCCc3nc4ccc(N)cc4[nH]3)[nH]c2c1,0.61,0.04
COc1cc(C(=O)OCC(=O)Nc2ccc(SC(F)F)cc2)cc(OC)c1OC,1.2,0.24
O=C(Cc1ccccc1F)OCC(=O)N1CCN(C(=O)c2ccco2)CC1,1.1,-0.29
CSc1cccc(NC(=O)Cn2cnc(S(=O)(=O)N3CCCC3)c2)c1,0.1,-0.03
O=C(Nc1ccc(Cl)c(Cl)c1)Nc1ccccc1C(=O)O,2.4,-1.3
COc1ccc(-c2ccc(S(=O)(=O)NCC3CCCO3)cc2)cc1 (stereo not given),0.82,-0.79
Cc1cc(N2CCCC2)ccc1NC(=O)CN1C(=O)NC(C)(c2ccccc2)C1=O (stereo not given),0.51,0.18
Cc1ccc(-n2ncc3c(=O)n(CC(N)=O)cnc32)cc1C,0.56,-0.01
CCOC(=O)N1CCN(CC(O)COc2ccccc2C(C)CC)CC1 (stereo not given),0.06,1.5
CC(C)c1ccc2oc(-c3ccc(NC(=O)c4ncn[nH]4)cc3)nc2c1,0.17,-0.88
CC(C)(C)NC(=O)Nc1ccc(Cn2cc(C(F)(F)F)ccc2=O)cc1,0.72,0.29
NC(=O)c1ccccc1NC(=O)/C=C/c1ccccc1,0.97,-1.1
Cc1ccc2[nH]c(O)c(N=NC(=O)C(C)n3cnc4ccccc4c3=O)c2c1 (stereo not given),0.81,0.76
CN(C)c1nc(SCC(=O)Nc2ccc(Cl)c(Cl)c2)nc(N2CCOCC2)n1,1.5,0.65
O=C(NC(=S)NCc1ccccc1)c1cccs1,2.6,0.94
CC1CCc2cc(F)ccc2N1C(=O)CSc1nnc2c3cc(F)ccc3n(C)c2n1 (stereo not given),1.1,-2.2
COc1ccc(-c2noc(CN(C)C(=O)c3ccoc3C)n2)cc1OC,2,-0.61
CCCCc1nnc(NC(=O)C(C)Sc2nc(N)cc(=O)[nH]2)s1 (stereo not given),0.26,-0.11
O=C(N/N=C1\CCc2ccccc21)c1ccccc1O,0.67,0.55
Cc1c(C(=O)Nc2c(C)n(C)n(-c3ccccc3)c2=O)oc2c(Cl)cccc12,0.41,1.4
CCCN(CCO)Cc1ccc2ccccc2c1,1.1,-1.5
CCCC(=O)C1C(=O)CC(C)(C)C(c2cc(C)no2)C1=O (stereo not given),1.6,-0.9
N#CCc1ccc(NC(=O)c2cc(S(=O)(=O)N3CCOCC3)ccc2Cl)cc1,0.28,-0.01
NCC(O)CN1CCN(Cc2ccccc2)CC1 (stereo not given),0.16,1
CCC(=O)Nc1ccc(N2CCN(C(=O)c3cccs3)CC2)cc1,0.26,0.41
CC12CCC(C(N)=O)(C1Br)C2(C)C (stereo not given),0.82,-0.99
CC1CN(S(=O)(=O)c2cccc(C(=O)Nc3ccc4c(c3)CCC4)c2)CC(C)O1 (stereo not given),0.01,-0.63
COc1ccc(/C=C/C(=O)Nc2ccccc2C)cc1S(=O)(=O)N1CCOCC1,0.17,0.11
COc1ccc(-c2nc(CNS(=O)(=O)c3ccc(OC)c(OC)c3)cs2)cc1,1,1
O=C(NCCc1ccc(F)cc1)C1CCCCC1,0.99,1.2
Cc1ccc(N2CC(C(=O)N3CCC(C(=O)NCCCOC(C)C)CC3)CC2=O)cc1 (stereo not given),1.1,1.3

# One compound at a time (already shown). Order of screens: KCNQ2 enhance, KCNQ2 enhance baseline
# Shown for CCCCc1nnc(NC(=O)C(C)Sc2nc(N)cc(=O)[nH]2)s1 (stereo not given) = 0.26, -0.11
# Shown for CCC(=O)Nc1ccc(N2CCN(C(=O)c3cccs3)CC2)cc1 = 0.26, 0.41
# Shown for CC1CN(S(=O)(=O)c2cccc(C(=O)Nc3ccc4c(c3)CCC4)c2)CC(C)O1 (stereo not given) = 0.01, -0.63
# Shown for N#CCc1ccc(NC(=O)c2cc(S(=O)(=O)N3CCOCC3)ccc2Cl)cc1 = 0.28, -0.01

# (list continues)
SMILES,KCNQ2 enhance,KCNQ2 enhance baseline
COc1ccc(CC(=O)N2CCN(c3ccccn3)CC2)cc1,1.2,-0.08
CCCCN(CC)Cc1ccc(CNC(=O)Nc2ccc(OC)cc2OC)o1,2.3,-0.15
Cc1ccc(-c2nc3ncccc3o2)cc1NC(=O)CC(C)C,1.2,0.57
CSc1ccc(C(=O)N2CCC(CCC(=O)NC3CC3)CC2)cc1,0.01,-0.6
CCCCCOC(=O)c1ccccc1C(=O)O,1.1,-0.85
O=C(O)c1csc(-n2nc(-c3ccccc3)cc2C(F)(F)F)n1,0.35,0.07
CCCC1=C(C(=O)OCC)C(c2cccs2)n2ncnc2N1 (stereo not given),0.94,1.1
Cc1ccc(SCc2cc(=O)[nH]c(N3CCOCC3)n2)cc1,1.2,0.3
COc1cccc(C(=O)NCC(=O)N2CCC3(CC2)NCCc2[nH]cnc23)c1,0.02,-0.46
CCCCCn1c(SCCCC)nc2c1c(=O)[nH]c(=O)n2C,0.06,-1.5
O=C(CN1CCN(c2ccccc2)CC1)N1N=CCC1c1ccccc1 (stereo not given),0.05,0.65
COCC1CCCCN1Cc1cn[nH]c1-c1ccc(OC)cc1OC (stereo not given),0.01,-0.93
COc1ccc(C)cc1NC(=O)CSc1nnnn1Cc1ccccc1,0.07,-0.05
N=Nc1c(O)n(CC(=O)Nc2ccccc2)c2ccccc12,0.63,-0.21
COC(=O)C1C(O)=C(C=Nc2ccc(N)cc2)C(=O)CC1(C)C (stereo not given),0.52,0.68
O=C(N/N=C/c1c[nH]c2ccc(Br)cc12)c1ccncc1,0.93,0.62
CCCC(=O)Oc1ccc(N(C(=O)CCC)S(=O)(=O)c2cccc([N+](=O)[O-])c2)cc1,0.86,0.36
O=C(C1CC(=O)N(c2ccc3c(c2)OCCO3)C1)N1CCN(c2ccccc2O)CC1 (stereo not given),0.18,-0.34
C=CCCC(=O)N1CCC(CCC(=O)NC2CC2)CC1,0.3,-0.03
CN(C(=O)c1ccc2c(c1)OCO2)C1CCS(=O)(=O)C1 (stereo not given),0.9,1.4
Cc1cnc(C(=O)Oc2ccc(-c3ccccc3)cc2)cn1,0.01,-0.06
CCOC(=O)Cn1ccc(NC(=O)c2ccc(F)cc2)n1,0.15,0.08
O=C(CCCCCn1c(=S)[nH]c2cc3c(cc2c1=O)OCO3)N1CCN(c2ccc(F)cc2)CC1,0.19,-0.16
COc1ccc(OCC(=O)NC(=S)Nc2ccc3c4c(cccc24)CC3)cc1,2,-1.6
COc1ccc(CNc2nc(-c3cccnc3)nn2C(=O)CC(C)C)cc1,0.05,-1.1
CC(C)CN(C(=O)COC(=O)c1ccc(Cl)nc1)c1c(N)n(Cc2ccccc2)c(=O)[nH]c1=O,0.18,0.1
COc1ccc(C2=NOC(C(=O)Nc3cc(C)on3)C2)cc1OC (stereo not given),2.2,-0.03
COc1cccc(CNC(=O)CSCC(=O)Nc2cc(C)on2)c1,0.98,0.43
CCc1nc2ccc(C(=O)NCCc3ccc(OC)c(OC)c3)cc2nc1CC,1.5,1.8
CCN(CC)CCNC(=O)C(C)c1nn(CC)c(=O)c2ccccc12 (stereo not given),2.8,0.35
Cc1cccc(OCC(O)Cn2c(NCc3cccnc3)nc3c2c(=O)[nH]c(=O)n3C)c1 (stereo not given),1.7,-0.5
COc1ccc(S(=O)(=O)N(C)C2CCS(=O)(=O)C2)cc1OC (stereo not given),1.3,0.38
Cc1cnc(NC(=O)CCCc2nc3ccccc3s2)s1,0.15,0.85
Cc1ccsc1C(=O)Nc1cccc(S(=O)(=O)N(C)C)c1,1.9,-1.3
Cc1ccccc1C(=O)N1CCC(C(=O)Nc2ccc(S(=O)(=O)N3CCCC3)cc2)CC1,0.56,0.28
CC(C)[C@H](NC(=O)OCc1ccccc1)C(=O)OCC(=O)NC1(C#N)CCCC1,0.76,0.57
O=C(CCS(=O)(=O)c1cccc2nsnc12)N1CCN(C(=O)c2ccco2)CC1,0.61,-0.03
O=C(O)CCC(=O)Nc1ccccc1C(=O)NCc1ccco1,1.6,-0.08
CCN(CC)C(=O)CSc1n[nH]c(=S)n1N,0.81,0.46
Nn1c(SCCOc2ccc(Cl)cc2)nnc1-c1cccnc1,0.23,-0.9
CC(O)CNC(=O)c1ccc(-c2nn(C)c(=O)c3ccccc23)cc1 (stereo not given),1.6,0.31
S=C(NC1CCCCC1)NN1CCOCC1,0.18,-2.6
CC1CCCCN1C(=O)CSc1nnc(-c2ccco2)n1CC1CCCO1 (stereo not given),1.3,0.12
CCNCCC(CCC(C)C)c1ccc2c(c1)OCO2 (stereo not given),0.75,1.7
COc1cccc(C2C=C(c3cccs3)Nc3ncnn32)c1OC (stereo not given),0.11,-0.12
CCOC(=O)c1c(C)oc2ccc(O)c(CN(C)C)c12,0.06,0.63
CCCC(=O)c1ccc(N2CCN(C(=O)c3ccccc3)CC2)c(F)c1,2.6,-2.4
COc1ccccc1C(=O)NCCC(=O)N1CCCC(C(F)(F)F)C1 (stereo not given),0.17,2
CCn1c2ccccc2c2cc(CN3CCN(S(=O)(=O)CC)CC3)ccc21,1,0.21
O=C(c1ccc(Cl)cc1)N(Cc1ccco1)C1CCS(=O)(=O)C1 (stereo not given),0.19,-2
O=C(NC(=S)Nc1ccc2oc(=O)ccc2c1)c1ccccc1F,0.68,0.8
COc1ccc(CNC(=O)C(=O)NCc2ccncc2)cc1,0.95,0.9
COc1ccc(-c2nc(CS(=O)CC(=O)NCCc3ccc(OC)c(OC)c3)c(C)o2)cc1 (stereo not given),0.09,0.01
COCCCNC(=S)NNC(=O)c1ccc(C(C)(C)C)cc1,0.29,-0.32
CSCCC(NC(N)=O)C(=O)NCc1cccc(Cl)c1 (stereo not given),0.3,-1.1
CCN(CC)S(=O)(=O)c1ccc(Cl)c(C(=O)Nc2ccc(Cl)cc2[N+](=O)[O-])c1,0.04,-1.4
O=C(NNC(=O)c1cccc2ccccc12)c1ccco1,0.38,0.13

# Rewritten with the structure last: entries from further up
KCNQ2 enhance,KCNQ2 enhance baseline,SMILES
2.3,-0.15,CCCCN(CC)Cc1ccc(CNC(=O)Nc2ccc(OC)cc2OC)o1
0.03,-0.24,Cc1nnc(SCC(=O)Nc2ccc(Cl)cn2)s1
